YB-1 expression – inhibitors of YB-1 gene expression, primary screen, cell-based, fluorescence; AID 434959, 2010; U2OS, qRT-PCR YB-1 vs CDIP delta delta Cp, 16 h; stronger effect = higher value; zero = DMSO, each unit about twofold; hit rate 0.37% among 30,000; delta delta Cp (YB-1 minus CDIP) (test concentration not listed);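 active means delta delta Cp rounded down to an integer at or above 3, about 3 SD of DMSO wells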;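 further: higher means less YB-1 transcript or more CDIP transcript relative to DMSO; stock transfer was 100 nL into about 100 µL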
* hit, by the source's call.

SMILES	YB-1 expression
CC(C)NC(=O)N(C)C[C@@H]1Oc2ncc(-c3cc4ccccc4o3)cc2C(=O)N([C@H](C)CO)C[C@@H]1C	-0.208
C[C@H]1CN([C@@H](C)CO)C(=O)CCCn2nncc2CO[C@@H]1CN(C)Cc1cccnc1	-0.395
Cc1cccc(CN(C)C[C@@H]2Oc3ncc(C#CCN(C)C)cc3C(=O)N([C@H](C)CO)C[C@@H]2C)c1	-0.0172
COc1cc2c(cc1OC)CN(C(=O)[C@@H]1[C@H]3C(=O)O[C@H](c4ccccc4)[C@H](c4ccccc4)N3[C@H](c3ccc(OCCO)cc3)[C@@]13C(=O)Nc1ccccc13)CC2	-0.133
C[C@@H]1CN([C@H](C)CO)C(=O)CCCn2nncc2CO[C@@H]1CN(C)C(=O)NC1CCCCC1	-0.2
C[C@@H]1CN([C@@H](C)CO)C(=O)CCCn2cc(nn2)CO[C@H]1CN(C)C(=O)Nc1ccc(C(F)(F)F)cc1	0.263
O=C1O[C@@H](c2ccccc2)[C@@H](c2ccccc2)N2[C@@H](c3ccccc3OCCO)[C@]3(C(=O)Nc4ccc(C#CCCO)cc43)[C@@H](C(=O)NC[C@H](O)c3ccccc3)[C@H]12	-0.363
C[C@H]1CN([C@@H](C)CO)C(=O)CCCn2nncc2CO[C@@H]1CN(C)Cc1ccc2cccnc2c1	0.248
NC(=O)[C@@H]1[C@H]2C(=O)O[C@H](c3ccccc3)[C@H](c3ccccc3)N2[C@H](c2ccc(O)cc2)[C@@]12C(=O)Nc1ccc(C#CC3(O)CCCCCC3)cc12	0.153
Cc1cccc(CN(C)C[C@H]2OCc3cn(nn3)CCCC(=O)N([C@H](C)CO)C[C@@H]2C)c1	0.353
COC(=O)CCCCCCC(=O)N/N=C/[C@H](O)[C@@H](O)[C@H](O)[C@H](O)CO	0.16
COc1ccc(/C=N/NC(=O)CCCCCCC(=O)Nc2ccccc2O)c(OC)c1	-0.553
O=C(NO)c1cccc(C(=O)N/N=C/c2cc(O)ccc2[N+](=O)[O-])c1	-0.608
O=C(CCCCCC(=O)Nc1ccccc1O)N/N=C/c1cc(Br)cc([N+](=O)[O-])c1O	-0.539
C[C@H](CO)N1C[C@H](C)[C@@H](CN(C)C(=O)Nc2ccc(F)cc2)OCc2cn(nn2)CCCC1=O	0.255
C[C@H](CO)N1C[C@H](C)[C@@H](CN(C)C(=O)Nc2cccc(F)c2)OCc2cnnn2CCCC1=O	1.03
C=C(C)[C@@H]1CC=C(/C=N/NC(=O)CCCCCCC(=O)OC)CC1	0.137
C[C@@H]1CN([C@@H](C)CO)C(=O)CCCn2cc(nn2)CO[C@H]1CN(C)Cc1ccc2cccnc2c1	0.16
COC(=O)C(CC#Cc1ccc2c(c1)[C@]1(C(=O)N2)[C@H](c2ccc(OCCO)cc2)N2[C@H](c3ccccc3)[C@H](c3ccccc3)OC(=O)[C@H]2[C@@H]1C(=O)N1CCc2cc(OC)c(OC)cc2C1)C(=O)OC	0.08
C[C@@H]1CN([C@H](C)CO)C(=O)CCCn2nncc2CO[C@@H]1CN(C)S(C)(=O)=O	-0.816
Cc1noc(C)c1NC(=O)N(C)C[C@H]1OCc2cnnn2CCCC(=O)N([C@@H](C)CO)C[C@H]1C	0.256
O=C(CCCCCC(=O)Nc1ccccc1O)N/N=C/C=C/c1ccccc1	-1.39
C[C@@H]1CN([C@H](C)CO)C(=O)CCCn2cc(nn2)CO[C@H]1CN(C)C(=O)C1CCCCC1	-0.399
C[C@H](CO)N1C[C@H](C)[C@H](CN(C)C(=O)Nc2ccc(F)cc2)Oc2ncc(C#Cc3cccc(F)c3)cc2C1=O	-0.209
Cc1noc(C)c1NC(=O)N(C)C[C@@H]1OCc2cn(nn2)CCCC(=O)N([C@H](C)CO)C[C@@H]1C	-0.0451

As entered above:
C[C@@H]1CN([C@H](C)CO)C(=O)CCCn2cc(nn2)CO[C@H]1CN(C)C(=O)C1CCCCC1 in YB-1 expression → -0.399
COc1ccc(/C=N/NC(=O)CCCCCCC(=O)Nc2ccccc2O)c(OC)c1 in YB-1 expression → -0.553
C[C@@H]1CN([C@@H](C)CO)C(=O)CCCn2cc(nn2)CO[C@H]1CN(C)C(=O)Nc1ccc(C(F)(F)F)cc1 in YB-1 expression → 0.263
Cc1cccc(CN(C)C[C@H]2OCc3cn(nn3)CCCC(=O)N([C@H](C)CO)C[C@@H]2C)c1 in YB-1 expression → 0.353

(continued)
SMILES	YB-1 expression
COC(=O)[C@]1(CCC(=O)OC(C)(C)C)N=C(c2ccc(OCCCO)cc2)O[C@@H]1c1ccccc1CN=[N+]=[N-]	-0.545
C[C@H](CO)N1C[C@H](C)[C@@H](CN(C)CC2CC2)OCc2cnnn2CCCC1=O	-0.0671
Cc1ccsc1/C=N/NC(=O)CCCCCCC(=O)O	0.172
COc1cc(CO)cc(I)c1O[C@H]1C=C(C(=O)NCCO)C[C@@H](NC[C@@H]2CCCO2)[C@@H]1O	0.12
C[C@@H]1CN([C@H](C)CO)C(=O)CCCn2cc(nn2)CO[C@H]1CN(C)C(=O)NC1CCCCC1	0.225
O=C(N/N=C/c1ccccc1C(=O)O)c1ccccn1	0.115
COCCCNC(=O)[C@@]1(Cc2ccccc2)COC(c2ccc(OCCCO)cc2)=N1	-0.106
C[C@@H]1CN([C@H](C)CO)C(=O)CCCn2cc(nn2)CO[C@H]1CN(C)C(=O)Nc1ccnc(N2CCOCC2)c1	0.114
O=C1N(CCS(=O)(=O)c2ccccc2)Cc2ccccc2[C@@H]2OC(c3ccc(OCCCO)cc3)=N[C@]12CCS(=O)(=O)c1ccccc1	0.408
O=C1O[C@H](c2ccccc2)[C@H](c2ccccc2)N2[C@H]1[C@@H](C(=O)NC[C@H](O)c1ccccc1)[C@]1(C(=O)Nc3ccc(C#CC4(O)CCCCCC4)cc31)[C@H]2c1ccc(OCCO)cc1	-0.153
C=CCN1Cc2ccccc2[C@H]2OC(c3ccc(OCCCO)cc3)=N[C@@]2(CC=C)C1=O	0.0237
C[C@@H]1CN([C@@H](C)CO)C(=O)CCCn2cc(nn2)CO[C@@H]1CN(C)Cc1ccc2cccnc2c1	0.309
NCCCC[C@@H]1NC(=O)[C@@H]2C[C@H](C(=O)NCc3ccc(F)cc3)[C@H](c3ccc(O)cc3)N2C1=O	0.142
O=C1O[C@@H](c2ccccc2)[C@@H](c2ccccc2)N2[C@@H](c3ccc(O)cc3)[C@]3(C(=O)Nc4ccc(C#CCCO)cc43)[C@@H](C(=O)N3CCN(c4ncccn4)CC3)[C@H]12	-0.176
CCCC(O)C#Cc1cnc2c(c1)C(=O)N([C@H](C)CO)C[C@H](C)[C@H](CN(C)C(=O)Nc1ccc(F)cc1)O2 (stereo partly specified)	-0.361
O=C(NO)c1ccc(C(=O)N/N=C/c2cccc(OCCO)c2)cc1	-0.0797
O=C(NO)c1cccc(C(=O)N/N=C/c2cc(Cl)cc(Cl)c2O)c1	-0.0955
C[C@H](CO)N1C[C@H](C)[C@H](CN(C)Cc2ccccc2)Oc2ncc(-c3cc4ccccc4o3)cc2C1=O	0.153
C[C@@H]1CN([C@@H](C)CO)C(=O)CCCn2nncc2CO[C@H]1CN(C)C(=O)OCc1ccccc1	-0.0725
O=C1O[C@H](c2ccccc2)[C@H](c2ccccc2)N2[C@H]1[C@@H](C(=O)N1CCN(c3ncccn3)CC1)[C@]1(C(=O)Nc3ccc(C#CC4(O)CCCCCC4)cc31)[C@H]2c1ccccc1OCCO	-0.0861
COc1ccc(CCNC(=O)[C@@H]2c3ccccc3C(=O)N(Cc3ccccc3OC)[C@H]2c2ccc(CO)cc2)cc1	-0.0487
C[C@H](CO)N1C[C@H](C)[C@H](CN(C)CC2CCCC2)OCc2cn(nn2)CCCC1=O	-0.487
C=CCNC(=O)[C@@H]1[C@H]2C(=O)O[C@H](c3ccccc3)[C@H](c3ccccc3)N2[C@H](c2ccc(O)cc2)[C@@]12C(=O)Nc1ccc(C#Cc3ccc(OC)cc3)cc12	-0.0125
C[C@H]1CN([C@@H](C)CO)C(=O)CCCn2nncc2CO[C@H]1CN(C)C(=O)Nc1cccc(Oc2ccccn2)c1	-0.196
COC(=O)CCCCCCC(=O)N/N=C/[C@H](O)[C@H](O)[C@@H](O)[C@H](C)O	-0.299

Fetched by structure from the entries so far (six):
SMILES	YB-1 expression
CCCC(O)C#Cc1cnc2c(c1)C(=O)N([C@H](C)CO)C[C@H](C)[C@H](CN(C)C(=O)Nc1ccc(F)cc1)O2 (stereo partly specified)	-0.361
COC(=O)CCCCCCC(=O)N/N=C/[C@H](O)[C@H](O)[C@@H](O)[C@H](C)O	-0.299
COC(=O)[C@]1(CCC(=O)OC(C)(C)C)N=C(c2ccc(OCCCO)cc2)O[C@@H]1c1ccccc1CN=[N+]=[N-]	-0.545
C[C@@H]1CN([C@@H](C)CO)C(=O)CCCn2nncc2CO[C@H]1CN(C)C(=O)OCc1ccccc1	-0.0725
COc1cc(CO)cc(I)c1O[C@H]1C=C(C(=O)NCCO)C[C@@H](NC[C@@H]2CCCO2)[C@@H]1O	0.12
C[C@H](CO)N1C[C@H](C)[C@@H](CN(C)CC2CC2)OCc2cnnn2CCCC1=O	-0.0671

(further entries)
SMILES	YB-1 expression
Cc1ccccc1CN(C)C[C@H]1OCc2cnnn2CCCC(=O)N([C@@H](C)CO)C[C@H]1C	-0.355
COc1cccc(CN(C)C[C@@H]2OCc3cn(nn3)CCCC(=O)N([C@H](C)CO)C[C@@H]2C)c1	0.176
C[C@@H]1CN([C@H](C)CO)C(=O)CCCn2nncc2CO[C@@H]1CN(C)Cc1ccc2c(c1)OCO2	-0.0988
COc1ccccc1NC(=O)N(C)C[C@H]1OCc2cnnn2CCCC(=O)N([C@@H](C)CO)C[C@@H]1C	-0.493
O=C(NO)c1cccc(C(=O)N/N=C/c2ccccc2)c1	-0.136
O=C1O[C@@H](c2ccccc2)[C@@H](c2ccccc2)N2[C@@H](c3ccc(OCCO)cc3)[C@]3(C(=O)Nc4ccc(C#CC5(O)CCCCCC5)cc43)[C@@H](C(=O)NC[C@H](O)c3ccccc3)[C@H]12	0.281
C=CCOC(=O)[C@H]1[C@@H]2C(=O)O[C@@H](c3ccccc3)[C@@H](c3ccccc3)N2[C@@H](c2ccc(OCCOC(=O)[C@H]3C[C@H]4C(=O)N[C@@H](Cc5ccccc5)C(=O)N4[C@H]3c3ccc(O)cc3)cc2)[C@]12C(=O)Nc1ccccc12	0.347
C[C@H](CO)N1C[C@H](C)[C@H](CN(C)C(=O)c2ccncc2)OCc2cnnn2CCCC1=O	0.0829
COc1ccc(NC(=O)N(C)C[C@H]2OCc3cn(nn3)CCCC(=O)N([C@@H](C)CO)C[C@H]2C)c(OC)c1	-0.148
O=C(NO)c1ccc(C(=O)N/N=C/c2cccnc2Br)cc1	-0.234
O=C(CCCCCC(=O)Nc1ccccc1O)N/N=C/c1cccc(O)c1	0.138
C=CCN1Cc2ccccc2[C@@H]2OC(c3ccc(OCCCO)cc3)=N[C@]2(CCC(=O)OC(C)(C)C)C1=O	-0.345
O=C(N/N=C/c1ccc(O)c(F)c1)c1ccccn1	0.106
C[C@H](CO)N1C[C@H](C)[C@H](CN(C)S(=O)(=O)c2ccc(C#N)cc2)OCc2cnnn2CCCC1=O	-0.314
C=CC[C@@]1(C(=O)N2CCOCC2)N=C(c2ccc(OCCCO)cc2)O[C@@H]1c1ccccc1	0.45
O=C1O[C@H](c2ccccc2)[C@H](c2ccccc2)N2[C@H]1[C@@H](C(=O)N1CCN(c3ncccn3)CC1)[C@]1(C(=O)Nc3ccccc31)[C@H]2c1ccc(OCCO)cc1	-0.435
C[C@@H]1CN([C@H](C)CO)C(=O)CCCn2nncc2CO[C@@H]1CN(C)C(=O)Nc1cccc(F)c1	-0.19
COCCOC(=O)N1C(=O)[C@@]2(c3ccccc31)[C@H](c1ccc(O)cc1)N1[C@H](c3ccccc3)[C@H](c3ccccc3)OC(=O)[C@H]1[C@@H]2C(N)=O	-0.273
C[C@H](CO)N1C[C@H](C)[C@@H](CN(C)C(=O)c2ccc3ccn(C)c3c2)OCc2cnnn2CCCC1=O	-0.0303
COc1cc2c(cc1OC)CN(C(=O)[C@H]1[C@@H]3C(=O)O[C@@H](c4ccccc4)[C@@H](c4ccccc4)N3[C@@H](c3ccc(O)cc3)[C@]13C(=O)Nc1ccc(C#CC4(O)CCCCCC4)cc13)CC2	-0.199
COc1cccc(S(=O)(=O)N(C)C[C@H]2OCc3cnnn3CCCC(=O)N([C@H](C)CO)C[C@@H]2C)c1	-0.068
C[C@@H]1CN([C@H](C)CO)C(=O)CCCn2cc(nn2)CO[C@@H]1CN(C)Cc1cccc(C(=O)O)c1	-0.509
C[C@H]1CN([C@@H](C)CO)C(=O)CCCn2nncc2CO[C@@H]1CN(C)Cc1ccc(O)cc1	-0.101
COC(=O)CCCCCCC(=O)N/N=C/c1ccc(OC)cc1	-0.654
C=CCNC(=O)[C@@H]1[C@H]2C(=O)O[C@H](c3ccccc3)[C@H](c3ccccc3)N2[C@H](c2ccc(OCCO)cc2)[C@@]12C(=O)Nc1ccc(C#CCC(C(=O)OC)C(=O)OC)cc12	0.0553
COc1cccc(S(=O)(=O)N(C)C[C@@H]2OCc3cn(nn3)CCCC(=O)N([C@@H](C)CO)C[C@H]2C)c1	-0.201
COC(=O)[C@@]1(Cc2ccccc2N=[N+]=[N-])N=C(c2ccc(OCCCO)cc2)O[C@H]1c1ccccc1CN=[N+]=[N-]	0.219
COCCOC(=O)N1C(=O)[C@@]2(c3cc(C#Cc4ccc(OC)cc4)ccc31)[C@H](C(N)=O)[C@H]1C(=O)O[C@H](c3ccccc3)[C@H](c3ccccc3)N1[C@@H]2c1ccccc1OCCO	9.54*
COc1ccc([Si](C)(C)[C@@H]2[C@@H](CCO)O[C@]3(C(=O)N(C)c4c(Br)cc(C)cc43)[C@H]2C)cc1	0.593
C[C@@H]1CN([C@@H](C)CO)C(=O)CCCn2nncc2CO[C@@H]1CN(C)C(=O)C1CCCCC1	-0.233

YB-1 expression: entries above that show a hit.
SMILES	YB-1 expression
COCCOC(=O)N1C(=O)[C@@]2(c3cc(C#Cc4ccc(OC)cc4)ccc31)[C@H](C(N)=O)[C@H]1C(=O)O[C@H](c3ccccc3)[C@H](c3ccccc3)N1[C@@H]2c1ccccc1OCCO	9.54*

Screens from PubChem.

This is a subset; count on the stated rates, not on these rows.
